HIV TAR-Tat = HIV-1 TAR-Tat binding disruption | HIV-1 TAR RNA, Tat peptide displacement FRET; hits give high values | actives 0.6% (n = 100,000) | z-score (concentration not given with the values) | AID 1259389;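 note: score is relative to mean and SD of negative controls; some compounds called inactive have numbers as strong as hits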
CDC25B CDK2 inh = human CDC25B-CDK2/CyclinA binding inhibition | P30305+P24941 | HTRF CDC25B-CDK2/CyclinA binding, anti-His/anti-Flag; hits give high values | z-score (no concentration beside the values) | actives 0.72% (n = 94,000);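 note: score is relative to mean and SD of negative controls; strong numbers were not always called active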
Numbers without * were called inactive; / = no result given.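 Rule for the calls: active = z-score from 3 up in half or more of its runs; inactive = the rest.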

SMILES,HIV TAR-Tat,CDC25B CDK2 inh
CCCCNc1cc(-n2nc(C)cc2C)ncn1,0.28,/
Fc1ccc(NCc2cccnc2)cc1,-0.36,0.89
CC(C)Cn1c(=N)c(C#N)cc2c(=O)n3ccccc3nc21,/,-2.8
CCc1ccc(NS(=O)(=O)c2[nH]ncc2-c2ccc(Cl)cc2)cc1,0.42,-0.3
COc1ccc(NC(=O)Nc2nnc(-c3ccncc3)s2)cc1,2.3,3.1
Cc1ccc2c(c1)C(C)(C)C1(CCCC(=O)N1)N2C (configuration not stated),/,-0.21
COc1c(S(=O)(=O)c2ccc(C)c(Cl)c2)cnc2ccc(C)cc12,-0.54,-2.1
COc1ccc(C(=O)CC2(O)C(=O)Nc3ccc(Br)cc32)c(OC)c1 (configuration not stated),0.27,0.17
C1=C(c2cccc3ccccc23)N2CCN=C2S1,/,-0.69
COCCNC(=O)CCCn1nc(C)c2sc3ccccc3c2c1=O,1.9,-3
COc1cccc(C2C(C#N)=C(N)OC3=C2C(=O)CCC3)c1 (configuration not stated),/,-0.38
Cn1c(=O)[nH]c(=O)c2c1nc(N1CCCCC1)n2Cc1ccccc1F,1.3,0.56
c1ccc2c(c1)CN1CCCCN1C2,/,-3.7
CC1CSc2ccc(S(=O)(=O)NCCCN3CCN(C)CC3)cc2NC1=O (configuration not stated),0.9,/
CCc1cc2c(ncn3c(=O)c4ccccc4nc23)s1,1,-2.1
O=C(Nc1nn2c(-c3ccco3)nnc2s1)c1ccc(F)cc1,0.03,-1.7
COC(=O)c1cc(S(=O)(=O)Nc2ccc(F)c(Cl)c2)c[nH]1,2.3,/
Cc1nc2scc(C)n2c(=O)c1S(=O)(=O)Nc1ccc2c(c1)OCCO2,-0.41,-2.2
Cc1cccc(-c2nc(C(N)=O)c3[nH]c(=O)n(C4CCCCC4)c3n2)c1,1.1,/
O=C1CCCc2cc(S(=O)(=O)N(CCCN3CCOCC3)Cc3ccco3)ccc2N1,0.85,/
O=C(c1ccc(CN2C(=O)CCn3nccc32)cc1)N1CCN(Cc2ccc3c(c2)OCO3)CC1,-0.36,/
Cn1c(CNC(=O)c2ccc(Cl)cc2)nnc1SCc1ccccc1,/,-0.98
Fc1ccc(N2CCN(c3nc(-c4ccccc4F)no3)CC2)cc1,1.5,/
Cc1ccc(S(=O)(=O)c2nc(S(C)(=O)=O)sc2NCCO)cc1,-1.3,-1.4
Cc1cn2c(=O)cc(COC(=O)c3cccs3)nc2s1,0.61,/
CSC(SC)=C(C#N)C(=O)c1ccccc1,/,0.62
O=C(CN1N=NC2C(=O)N(c3ccc(Cl)cc3)C(=O)C21)Nc1ccccc1Cl (configuration not stated),-0.28,0.13
CN(C)CCNc1c2c(c(C#N)c3nc4ccccc4n13)CCCC2,0.29,-0.43
Cn1c(=O)c2c(nc(N3CCCCC3)n2C)n(C)c1=O,2.9,-3.3
CCN(CC)C(=O)Cn1cc(SCC(=O)Nc2ccc3c(c2)OCO3)c2ccccc21,1.2,/
Cn1nnnc1SCCNCc1ccc(-c2ccc(Br)cc2)o1,0.22,0.06
CN(C)c1ccc([N+](=O)[O-])c(N(C)C)c1C#N,/,-0.55
COc1ccc(S(=O)(=O)NCc2nc3nc(C)cc(C)n3n2)cc1OC,1.6,-0.5
FC(F)(F)c1cccc(-n2c(Cn3nnc(N4CCOCC4)n3)n[nH]c2=S)c1,/,-3.8
Cc1cc(C)cc(Nc2ncccc2N)c1,-7.8,/
COc1cc(C(F)(F)F)cc(C(F)(F)F)c1C(=O)N1CCC(C(=O)c2ccc(Cl)cc2)CC1,/,-0.34
O=C1CCN(C(=O)c2cc3c(s2)-c2ccc(Cl)cc2S(=O)(=O)C3)CC1,0.35,-1.8
Cc1nc2c(C)cccn2c(=O)c1NC(=O)Cc1ccc(Cl)cc1,0.41,/
Cc1ccc(S(=O)(=O)N2CCN(S(=O)(=O)c3ccc(C)cc3)C2)cc1,/,-4.7
O=C(NCc1ccccn1)C1CCCN(C(=O)N2CCOc3ccccc32)C1 (configuration not stated),-0.37,/
NC(=O)c1c(-c2cccc(F)c2)noc1N,0.17,-0.92
CCN(c1ccc2c(c1)OCO2)S(=O)(=O)c1cc(Br)cc2c1N(C(=O)C1CC1)CC2,-6.3,-1.1
O=C(COc1ccc([N+](=O)[O-])cc1)Nc1ccc2c(c1)C(=O)c1ccccc1C2=O,/,-0.94
CCOC(=O)C1=C(C)OC(N)=C(C#N)C1c1ccccc1 (configuration not stated),/,-0.73
O=C1CCc2cc(S(=O)(=O)N3CCC(C(=O)Nc4ccc(F)c(F)c4)CC3)ccc2N1,/,-0.95
CS(=O)(=O)N(C(=O)NC(=O)Nc1ccc(Cl)cc1)c1ccc(Cl)cc1,2,0.54
Cc1ccc(OCc2cc(=O)n3ccsc3n2)cc1C,-0.53,-2.5
c1ccc(C2=Nn3c(nnc3C3CCCCC3)SC2)cc1,-0.09,/
O=C(COC(=O)c1cccc(I)c1)c1ccccc1,/,-0.57
O=C(c1ccco1)N1CCN(Cc2cc(=O)n3[nH]c(-c4ccccc4)nc3n2)CC1,0.62,/
O=C(NC(c1ccc(Cl)cc1)c1cccnc1)C1CC1 (configuration not stated),0.02,-1.6
Cc1ccccc1NC(=O)CCC(=O)N/N=C/c1cc(Br)ccc1O,/,-2.7
O=C(c1c2c(nc3ccccc13)C(=O)N(C1CCCCC1)C2)N1CCC(c2ccccc2)C1 (configuration not stated),0.8,/
CCC12CN3CC(CC)(CN(C1)C3c1ccco1)C2O (configuration not stated),-0.16,-1.4
CC1CCc2c(C(=O)NCC3CCCO3)csc2C1 (configuration not stated),-1.2,-1.5
COc1cc(/C=C/c2cc(C(F)(F)F)[nH]c(=O)n2)ccc1O,-0.41,-1.1

(list continues)
SMILES,HIV TAR-Tat,CDC25B CDK2 inh
Cc1nn(C(C)C(=O)O)c2ccccc12 (configuration not stated),0.77,-0.87
Cc1noc2ncnc(N3CCC(C(=O)N4CCCCC4)CC3)c12,1.5,/
COc1ccc(OC)c(C2C(C(=O)OC3CCCCC3)=C(C)NC3=C2C(=O)CCC3)c1 (configuration not stated),0.71,-3
CCCc1cc(=O)n2nc(N3CCC(C(=O)NCC4CCCN4CC)CC3)sc2n1 (configuration not stated),0.91,-0.25
Cc1c(Cl)cccc1NS(=O)(=O)c1ccc2nc(-c3ccccc3)[nH]c2c1,/,-1.9
CCOC(=O)COc1ccc2c(=O)c(Oc3cc(C)cc(C)c3)coc2c1,1.9,-1.3
CSc1nc(-c2ccc(C(C)(C)C)cc2)c(C#N)c(N2CCOCC2)n1,1.3,-4.7
CCS(=O)(=O)c1nc(S(=O)(=O)c2ccc(Cl)cc2)c(NCc2cccs2)s1,1.4,-2.1
CCCCCn1c(N)c(C#N)c2nc3ccccc3nc21,0.34,-1.1
Fc1ccccc1CN1CCC(CNc2nc(-c3ccccc3)no2)CC1,0.06,/
CCCCCOc1ccc(C(=O)NN)cc1,/,-1.8
Cn1c(CNc2nc3ccccc3n2CCN2CCOCC2)nc2ccccc21,3.7,-2.3
O=C(Oc1ccc2c(C(F)(F)F)cc(=O)oc2c1)c1ccccc1,/,0.85
CN(C)C1N(C(=O)c2ccc(Cl)cc2)N=C2c3ccccc3S(=O)(=O)N21 (configuration not stated),/,-1.3
CCN(CC)CCCNc1ncnc2c1cnn2-c1cc(Cl)ccc1C,0.34,/
Cc1cccc(CCNc2nc3ccccc3n3nnnc23)c1,0.96,-0.1
COC(=O)c1sc(N2C(=O)c3oc4ccc(C)cc4c(=O)c3C2c2ccc(C)cc2)nc1C (configuration not stated),2,-1.5
CCC1CN(S(=O)(=O)c2c(C(=O)N3CCC(C)CC3)c(C)n(C)c2C)c2cc(Cl)ccc2O1 (configuration not stated),1.8,/
Nc1nonc1/C(=N/O)N1CCCC1,/,-0.81
O=C(c1cc(-c2cccs2)on1)N1CCCC1c1ccc(Cl)cc1 (configuration not stated),0.14,1.4
Cc1nn(C)c(=O)c2noc(/C=C/c3ccc(C(F)(F)F)cc3)c12,/,-0.91
COc1ccc(N2C(=O)CSC2c2ccc(F)cc2)cc1 (configuration not stated),/,-1.2
CC(=O)Nc1ccc(S(=O)(=O)[C@H]2CS(=O)(=O)C[C@@H]2N2CCC(C(N)=O)CC2)cc1,0.45,-0.75
Cc1ccc(C2Nc3nonc3NC3=C2C(=O)CC(C)(C)C3)cc1 (configuration not stated),1.4,-1.3

Of the compounds above, nine have two or more sulfur atoms.
SMILES,HIV TAR-Tat,CDC25B CDK2 inh
CC1CSc2ccc(S(=O)(=O)NCCCN3CCN(C)CC3)cc2NC1=O (configuration not stated),0.9,/
Cc1nc2scc(C)n2c(=O)c1S(=O)(=O)Nc1ccc2c(c1)OCCO2,-0.41,-2.2
Cc1ccc(S(=O)(=O)c2nc(S(C)(=O)=O)sc2NCCO)cc1,-1.3,-1.4
Cc1cn2c(=O)cc(COC(=O)c3cccs3)nc2s1,0.61,/
CSC(SC)=C(C#N)C(=O)c1ccccc1,/,0.62
O=C1CCN(C(=O)c2cc3c(s2)-c2ccc(Cl)cc2S(=O)(=O)C3)CC1,0.35,-1.8
Cc1ccc(S(=O)(=O)N2CCN(S(=O)(=O)c3ccc(C)cc3)C2)cc1,/,-4.7
CCS(=O)(=O)c1nc(S(=O)(=O)c2ccc(Cl)cc2)c(NCc2cccs2)s1,1.4,-2.1
CC(=O)Nc1ccc(S(=O)(=O)[C@H]2CS(=O)(=O)C[C@@H]2N2CCC(C(N)=O)CC2)cc1,0.45,-0.75

The listing continues:
SMILES,HIV TAR-Tat,CDC25B CDK2 inh
O=C(Cn1cc2c(n1)CCCCCC2)NCCCN1CCCC1=O,0.83,-1.6
CCc1cccc2c1NC1(CCCC1)CC2C (configuration not stated),-2.1,0.12
CCN(CC)CCNC(=O)CCCn1nc(C)c2sc3ccccc3c2c1=O,2,0.07
Cc1ccc(-c2nc(N)sc2C)cc1,-15,-1.8
C=CCNc1ncnc2c1c(-c1ccccc1)cn2-c1ccccc1Cl,0.92,-1.1
O=C(CCS(=O)(=O)c1ccc2c(c1)NC(=O)CS2)Nc1cccc(F)c1,-0.34,/
CCCC1O[C@@H]2CC3C4CCC5=CC(=O)C=CC5(C)C4[C@@H](O)CC3(C)[C@]2(C(=O)CO)O1 (some centres not stated),-0.03,/
COc1ccc(S(=O)(=O)N2CCc3nc(NC(=O)c4cnccn4)sc3C2)cc1,1.9,/
COc1ccc(Cc2nc3c4c(C)c(C)n(-c5ncccc5C)c4ncn3n2)cc1,1.1,-0.42
CCOC(=O)c1c(SC)nc2ccc(Cl)cc2c1Oc1ccccc1,/,1.3
CC1CCCCN1c1csc2ccccc2c1=O (configuration not stated),-2.1,/
CC1CCN(C(=O)Cn2cnc(S(=O)(=O)N3CCCCC3)c2)CC1,-1.2,/
C=Cc1ccc(CN2C(=O)N(c3ccc(F)cc3)S(=O)(=O)c3ccccc32)cc1,0.44,/
Cc1nc2ccccc2n1Cc1ccc(C(C)C)cc1,1.7,-1.7
Cc1cc(C)cc(NC(=O)N2CSC[C@@H]2C(=O)NCc2csc(C)n2)c1,2.2,/
COc1cccc(NS(=O)(=O)c2ccc(N3CCCCS3(=O)=O)cc2)c1,-0.54,/
O=C(C1CCN(S(=O)(=O)c2cccc3nonc23)CC1)N1CCOCC1,2.1,/
Cc1cc([N+](=O)[O-])nn1CC(=O)Nc1ccccn1,-0.19,-0.72
COc1cc2nc(NCCCOC(C)C)n3nc(-c4ccccc4)nc3c2cc1OC,-1.6,-1.8
COc1ccc(OC)c(S(=O)(=O)NCc2nn(-c3ccccc3)nc2C)c1,/,-2.5
N#Cc1nc(-c2ccccc2)c(-c2ccccc2)nc1C#N,/,-0.77
O=[N+]([O-])c1cccnc1Sc1nccc(-c2cccnc2)n1,/,-0.05
Cc1ncc(-c2ccc(C)c(S(=O)(=O)Nc3ccc(Cl)cc3C)c2)o1,0.91,/
CCN(CC)c1nc(Nc2ccc(OC)cc2)c2cnn(C)c2n1,0.07,/
COc1ccc(OCC(O)Cn2nnc3ccccc32)cc1 (configuration not stated),-0.43,-2.1
C=CCOc1cccc(C2c3c(oc4cc(C)c(C)cc4c3=O)C(=O)N2CCCN(C)C)c1 (configuration not stated),-0.77,-2
O=C1C2CCCCC2C(=O)N1c1cccc(O)c1 (configuration not stated),0.51,0.02
COc1ccc(C(=O)c2c(N)c(-c3nc(-c4ccc(OC)cc4)cs3)c3ccccn23)cc1,0.73,-0.79
Cc1ccc(C2CC(c3ccccc3)Nc3nnnn32)cc1 (configuration not stated),/,-0.52
O=c1c(NCc2ccco2)c(-c2ccc(Cl)cc2)c1=O,-1.1,/
O=C1c2ccccc2-c2onc3c(N4CCOCC4)cc(Nc4ccc(F)cc4)c1c23,1.1,13*
O=C1CCCC2=C1C(c1ccc3c(c1)OCO3)c1c(nc(SCc3ccccc3F)[nH]c1=O)N2 (configuration not stated),/,-2.6
CCOC(=O)C1=C(C)NC(C)=C(C(=O)OCC)C1c1nc2ccccc2[nH]1,/,0.2
CCc1ccc(C(=O)c2cn(CC(N)=O)c3nc(C)ccc3c2=O)cc1,-1.3,/

High-throughput results (PubChem BioAssay)
